Lassa entry inh – inhibitors of Lassa virus binding or cell entry; AID 540256; Potency, µM (top dose mostly 37.9 µM), without a hit: top-dose activity change, negative = inhibition, actives largely listed as inhibitors; 1.2% of 300,000 active; Lassa virus pseudotype entry inhibition, cell reporter; control for the full effect not named in the record; active means well fitted inhibition curve with a large enough effect; inconclusive means small, poorly fitted or top-dose-only effect, or effect the other way; inactive means flat fitted curve, though single readings scatter; tested in HEK293 cells; note: % is set by controls: 0 for no effect and ±100 for the full control effect; nearly all actives have a fitted effect of over 50% in size; luciferase read-out
Cruzain inh Det – blocks cruzain activity in presence of Triton detergent; P25779; purified cruzain, Z-FR-AMC fluorescence, 0.01% Triton; Potency, µM, without a hit: max response, negative = inhibition, most hits filed as inhibitors; 0.43% of 200,000 active;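 note: plate controls were neutral wells for no effect and buffer without enzyme for full effect; nearly all actives have a fitted effect of over 40% in size; top concentration of the series not given in the record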
Target sequence (P25779 123-467 limits assumed): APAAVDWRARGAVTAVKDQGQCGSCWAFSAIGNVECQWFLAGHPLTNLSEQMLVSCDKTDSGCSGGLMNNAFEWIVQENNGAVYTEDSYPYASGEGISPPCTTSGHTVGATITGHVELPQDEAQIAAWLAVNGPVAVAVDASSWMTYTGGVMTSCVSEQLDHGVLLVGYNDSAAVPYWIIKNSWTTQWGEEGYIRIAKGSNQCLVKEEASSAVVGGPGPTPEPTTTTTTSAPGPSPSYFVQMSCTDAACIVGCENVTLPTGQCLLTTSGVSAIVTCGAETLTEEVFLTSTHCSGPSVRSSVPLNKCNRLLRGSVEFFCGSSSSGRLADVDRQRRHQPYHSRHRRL
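Detergent-containing arm of a paired screen for aggregation-based inhibition: 0.01% Triton X-100 present. Cruzain at 1.5 nM cleaved 2 uM Z-FR-AMC at pH 5.5 with 5 mM DTT; AMC fluorescence gain over 60 s measured activity.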
RE007 growth inh – less growth of the S. pombe RE007 Vpr strain; S. pombe RE007 Vpr strain, BacTiter-Glo ATP luminescence, 24 h; control for the full effect not named in the record; Potency, µM (titrated, usually from 92.2 µM), for the others: at the highest dose activity change, negative = less growth; 0.21% of 360,000 active; AID 651644; active = well fitted falling curve with a large enough effect; inconclusive = small, poorly fitted or top-dose-only effect; inactive = no such curve, though single readings can be large or run the other way;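 note: % is set by controls: 0 for no effect and ±100 for the full control effect; nearly all actives have a fitted effect of over 50% in size; the assay follows cell death caused by Vpr and the record does not say whether a fall means rescue or toxicity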
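Fission yeast strain RE007, carrying one chromosomally integrated HIV-1 vpr copy, was seeded at OD 0.01 in PMG+AL medium with 23 nL pinned compound. After 24 h at 30 °C and 99% humidity, viability was read by BacTiter-Glo luminescence.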
NS1 function inh – inhibitors of influenza NS1 protein function. S. cerevisiae slowed by influenza A NS1, growth recovery by OD600. Potency, µM (highest dose often 46.1 µM), without a hit: top-dose activity, positive = more growth. 0.4% of 270,000 active. AID 2326; active means well fitted rising curve with a large enough effect; inconclusive means small, poorly fitted or top-dose-only effect; inactive means no such curve, though single readings can be large or run the other way; note: nearly all actives have a fitted effect of over 50% in size
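In this qHTS, NS1 from influenza A is expressed in budding yeast, where it slows growth. Cells are switched from glucose to 2% galactose medium (pH 6.0, -URA), treated with compound, and growth recovery is read at OD600.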
StopGo reporter – lowers the luciferase signal of an FMDV 2A StopGo reporter; human cells with a luciferase reporter of 2A StopGo recoding; control for the full effect not named in the record; Potency, µM (doses to about 57.9 µM), for inactives: at the top dose signal change, negative = less light; 1.2% of 410,000 active; active = well fitted falling curve with a large enough effect; inconclusive = small, poorly fitted or top-dose-only effect; inactive = no such curve, though single readings can be large or run the other way; tested in HEK293T cells; note: % is set by controls: 0 for no effect and ±100 for the full control effect; nearly all actives have a fitted effect of over 45% in size; luciferase light after 4 h
MARV entry inh – Marburg virus entry inhibition; Potency, µM (top dose mostly 37.8 µM), for inactives: at the highest dose activity change, negative = inhibition, actives largely listed as inhibitors; 1.8% of 300,000 active; AID 540276; Marburg virus pseudotyped entry inhibition, cell reporter; control for the full effect not named in the record; about a third of the inactives were read at about 46 µM; active = well fitted inhibition curve with a large enough effect; inconclusive = small, poorly fitted or top-dose-only effect, or effect the other way; inactive = flat fitted curve, though single readings scatter; tested in HEK293 cells; about a fifth of its hits are not listed in these tables; note: % is set by controls: 0 for no effect and ±100 for the full control effect; luciferase read-out
Cruzain noTriton – inhibitors of Trypanosoma cruzi cruzain without detergent. P25779. purified cruzain, Z-FR-AMC fluorescence, no detergent. Potency, µM, without a hit: max response, negative = inhibition, hits mostly inhibitors. 2.3% of 200,000 active. AID 1476;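 note: plate controls were enzyme without inhibitor for no effect and buffer without enzyme for full effect; nearly all actives have a fitted effect of over 40% in size; top concentration of the series not given in the record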
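Detergent-free condition (0.00005% Triton X-100) in acetate buffer pH 5.5 with DTT. 1.5 nM enzyme and compound were pre-mixed 15 min, then 2 uM Z-FR-AMC substrate added; reaction progress from fluorescence change between first and third reads (60 s).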
SARS PLP yeast – SARS-CoV PLP inhibition in yeast. S. cerevisiae expressing SARS-CoV PLpro, growth rescue; control for the full effect not named in the record. 0.19% of 330,000 active. AID 485353. Potency, µM (doses to about 32.9 µM), for inactives: at the top dose activity, positive = growth rescue; active means well fitted rising curve with a large enough effect; inconclusive means small, poorly fitted or top-dose-only effect; inactive means no such curve, though single readings can be large or run the other way; note: 0% is about no effect; nearly all actives have a fitted effect of over 55% in size; growth read by luminescence after 48 h
Active calls of the source: *; ? = inconclusive; nt = no result given; [ ] = dose if it differs, or a comment. Unless noted, calls come from the whole dose curve; as a rule, active = well fitted curve in the direction sought with a large enough effect; inconclusive = small, poorly fitted or top-dose-only effect, or another doubt; inactive = no such curve, though single readings can be large; an effect the other way counts as inactive or inconclusive. Potency is the fitted concentration of half-maximal effect.

SMILES | Lassa entry inh | Cruzain inh Det | RE007 growth inh | NS1 function inh | StopGo reporter | MARV entry inh | Cruzain noTriton | SARS PLP yeast
CC(C)(C)c1cc(NC(=O)c2cc(F)c(F)c(F)c2F)no1 | -26% | 2.1% | -7% | -13% | 18% | ? | ? | ?
N#CCCn1cc(C(=O)NCc2ccccc2)c(-c2cccs2)n1 | -11%[46.1 µM] | nt | -19% | nt | 42%[activator] | -26%[46.1 µM] | nt | 0%
O=C(NCCOC(=O)c1ccc(Cl)c(S(=O)(=O)N2CCCCC2)c1)c1ccncc1 | 6% | -4.6% | 6% | -6% | ? | 1%[46.1 µM] | -4% | -4%
Cc1c(CN2CCC(Oc3ccc(C(=O)N4CCCCC4)cc3)CC2)cnn1C | 28% | nt | -7% | -6% | -6% | ? | nt | -6%
CCOC(=O)c1nnn(-c2nonc2N)c1CSc1nnc(N)s1 | 7%[46.1 µM] | nt | -2% | nt | 2% | 1%[46.1 µM] | nt | 1%
O=C(NCc1ccccc1)c1c[nH]c2cc3c(cc2c1=O)OCCO3 | -23% | -0.8% | 1% | 11% | 17% | ? | -19% | -16%
Cc1[nH]c2ccc(C(=O)N3CCN(c4cccc(Cl)c4)CC3)cc2c1C | nt | nt | 22% | -60% | 0% | nt | nt | -7%
COc1cc(OC)cc(C(=O)Nc2cc(NC(=O)c3ccco3)ccc2OC)c1 | -30% | -11% | -23% | -50% | -21% | 0%[46.1 µM] | 5% | 0%
COC(=O)c1cc(-c2ccccc2)n[nH]1 | 10% | 0.6% | -16% | -1% | 47%[activator] | 4% | -1% | -1%
COC(=O)CC1C(=O)NCCN1C(=O)CSc1nc2ccccc2s1 (stereo not given) | nt | nt | 0% | nt | 17% | ? | nt | -5%
CCOc1cc2[nH]c(=S)n(CCCC(=O)NCc3ccco3)c(=O)c2cc1OCC | 0% | 1.9% | -10% | 10% | -12% | 2% | 21% | 4%
CC(OC(=O)c1cc(S(=O)(=O)Nc2ccc(F)cc2)ccc1Cl)C(=O)Nc1ccc2c(c1)OCCO2 (stereo not given) | 5% | -5.6% | -7% | 5% | 14% | ? | 7% | 26%
O=C(c1ccccc1)N1CCN(C2CCCCCC2)CC1 | 14% | 12% | 18% | -12% | -17% | -7% | -5% | -6%
CC(C)C(=O)OCC(=O)NCc1ccccc1Cl | 0% | nt | -13% | nt | 13% | 7%[46.1 µM] | nt | 2%
CCOc1ccc(NC(=S)N(Cc2ccc(Cl)cc2)Cc2ccco2)cc1 | -28% | -1.6% | 17% | 15% | nt | -16% | -2% | -6%
Cc1ccc(N=C2SCCCN2C(=O)c2cccc(N3C(=O)CCC3=O)c2)cc1Cl | 11% | nt | 4% | nt | -7% | 4% | nt | -1%
NC(=O)C1CCN(CC(O)CSc2ccc(F)cc2)CC1 (stereo not given) | ? | nt | -11% | -1% | 8% | 1% | nt | 1%
O=C(Nc1c2c(nn1-c1ccc(F)cc1)CS(=O)(=O)C2)C12CC3CC(CC(C3)C1)C2 | 19% | -1.9% | -8% | -24% | -17% | -22% | -2% | 7%
COc1ccccc1OCC(=O)Nc1ccc(-c2nnc(-c3ccco3)o2)cc1 | 21% | nt | -19% | -5% | 19% | -6% | nt | 0%
COC(=O)c1c(NC(=O)CN2CCN(c3cccc(Cl)c3)CC2)sc(C)c1C | -14% | -5.5% | 2% | -4% | 0% | ? | ? | 4%
COc1ccc(CCN2C(=O)CC(Cc3cccc(C)c3)C2=O)cc1OC (stereo not given) | -4%[46.1 µM] | nt | 9% | -7% | -17% | -4%[46.1 µM] | nt | 10%
CCN(Cc1nc(-c2ccc(OC)c(OC)c2)no1)C(=O)c1ccoc1C | 6% | nt | 1% | -7% | -6% | -2% | nt | -4%
Cc1nn(-c2ccccc2)c(OC(=O)C(C)C)c1Sc1ccc(Cl)cc1 | 11%[46.1 µM] | -3.5% | nt | nt | -29% | 18%[46.1 µM] | -10% | nt
CC(C)Oc1cccc(C(=O)C2CCCN(C(=O)c3cncs3)C2)c1 (stereo not given) | nt | nt | 5% | 1% | -17% | nt | nt | -2%
CN(C(=O)c1cccc(C(F)(F)F)c1)C1CCCc2ccccc21 (stereo not given) | -12%[46.1 µM] | nt | 10% | 8% | 25% | ? | nt | 1%
Carrying on:
SMILES | Lassa entry inh | Cruzain inh Det | RE007 growth inh | NS1 function inh | StopGo reporter | MARV entry inh | Cruzain noTriton | SARS PLP yeast
COc1ccccc1Nc1ncc(C(=O)N2CCN(Cc3ccc(OC)c(OC)c3OC)CC2)c2ccccc12 | 13µM* | nt | -12% | nt | -12% | ? | nt | -6%
COc1ccc(C2CC(=O)Nc3c2c(=O)n(C)c2nc4ccccc4n32)cc1 (stereo not given) | 5%[46.1 µM] | -1.7% | nt | nt | 0% | -4%[46.1 µM] | 4% | nt
O=C(Nc1cccc(N2CCCC2)c1)c1cccs1 | 18% | 5.3% | -1% | -55% | nt | 8% | ? | -12%
CC(=O)N1CCN(C(=O)C2(NC(=O)Nc3cccc(F)c3)CCCCC2)CC1 | nt | nt | 17% | 11% | -4% | -1%[46.1 µM] | nt | 0%
O=c1[nH]c(Cc2cccs2)nc2ccccc12 | -1% | 6.3% | 7% | 5% | -3% | -9% | -7% | 3%
CC(C)C(=O)Nc1ccccc1Cc1ccccc1 | -2% | nt | 58% | nt | -22% | 3%[46.1 µM] | nt | 0%
CCN(CC)C1=CC(=O)OC12CCCCC2 | 14% | 3.0% | -5% | 10% | -17% | 21% | 7% | 4%
O=C(Nc1nc2ccccc2[nH]1)c1ccc(S(=O)(=O)N2CCOCC2)cc1 | nt | nt | 1% | -2% | 14% | nt | nt | 0%
N#Cc1ccccc1S(=O)(=O)N1CCN(C(=O)C2CCCC2)CC1 | 5%[46.1 µM] | nt | 1% | 5% | -6% | -12%[46.1 µM] | nt | 1%
Cc1ccc(-c2nn3c(-c4ccco4)nnc3c3ccccc23)cc1S(=O)(=O)NCC1CCCO1 (stereo not given) | -16% | -4.4% | 8% | -33% | -1% | ? | ? | 1%
O=C(NCc1ccc(F)cc1)c1cc(S(=O)(=O)N2CCCCC2)c[nH]1 | nt | nt | -11% | 5% | -7% | nt | nt | 16%
CCC(C)Cn1c(C(C)O)nc2ccccc21 (stereo not given) | ? | 4.6% | -12% | -1% | -9% | ? | 0% | 12%
CCS(=O)(=O)Nc1cccc(-c2nc3cccnc3s2)c1C | nt | 0.7% | 0% | -13% | -9% | nt | -4% | 0%
CC(=O)c1ccc(S(=O)(=O)N2CCCC2)cc1 | 1% | 0.9% | 13% | 8% | 92%[activator] | ? | 7% | 3%
NC(=O)C12C(=O)NC(=O)C1(C(=O)O)C21CCCC1 (stereo not given) | -5% | nt | 0% | nt | 0% | -18% | nt | nt
COc1ccccc1CN1CC(C(=O)N(Cc2cnn(C)c2)C(C)C)CCC1=O (stereo not given) | 18%[46.1 µM] | nt | -5% | -7% | 35%[activator] | -21%[46.1 µM] | nt | -2%
COc1ccc(C(=O)Cn2cnc3ccccc3c2=O)c(OC)c1 | nt | nt | -3% | 11% | 44%[activator] | nt | nt | 1%
Cc1c(C(=O)N2CCCC2)nnn1-c1nonc1N | -4% | -1.7% | -3% | -12% | 22% | 1% | -2% | 2%
CCCn1nc(C(=O)NC2CCCc3ccccc32)c2ccccc2c1=O (stereo not given) | ? | -7.8% | 4% | -4% | ? | ? | 10% | -41%
CCn1c(C(=O)NCc2ccccc2Br)cc2oc3ccccc3c21 | nt | -6.6% | nt | nt | -1% | ? | ? | nt
O=C(c1cccc([N+](=O)[O-])c1)N1CCN(c2ncccn2)CC1 | nt | nt | -5% | 0% | 6% | nt | nt | -2%
CCOC(=O)C1CCCN(C(=O)c2ccc3c(c2)sc2nc(-c4ccc(C)cc4C)cn23)C1 (stereo not given) | 1%[46.1 µM] | 1.1% | nt | nt | ? | nt | ? | nt
COC(=O)c1ccc([C@@H]2Nc3c(OC)ccc(C)c3[C@@H]3C=CC[C@@H]32)cc1 | ? | -7.3% | nt | nt | -6% | 9%[46.1 µM] | ? | nt
CC(=O)Nc1ccc(S(=O)(=O)N2CCC(n3cnc4cc(F)ccc43)CC2)cc1 | 16% | 2.9% | 16% | -11% | ? | -5% | -8% | 0%
Cc1ccc(CNC(=O)c2ccc(Br)o2)cc1 | 0% | 6.3% | 6% | -67% | nt | 10% | 1% | -25%
The results go on:
SMILES | Lassa entry inh | Cruzain inh Det | RE007 growth inh | NS1 function inh | StopGo reporter | MARV entry inh | Cruzain noTriton | SARS PLP yeast
Cc1[nH]c2ccc(F)cc2c1CCN1C(=O)OC(C)(C)C1(C)O (stereo not given) | -11% | nt | -2% | -5% | 7% | 2%[46.1 µM] | nt | 2%
CCCN1CCN(CCCNC(=O)CN2C(=O)COc3ccccc32)CC1 | 0% | 4.5% | -11% | -3% | nt | 13% | -4% | 1%
COc1ccc(C(C(O)C(=O)c2c[nH]c3ccccc23)N2CCN(c3ccccc3)CC2)cc1 (stereo not given) | ? | 0.5% | 0% | -33% | 8% | ? | -15% | 1%
COc1ccc(/C=N/Nc2ncnc3sc(C)c(C)c23)cc1 | 9% | -15% | 5% | -6% | 5% | 16% | 29% | -21%
CC1=NN2C(=N)/C(=C\c3cc(C)n(-c4ccc(C)cc4)c3C)C(=O)N=C2S1 | -3% | nt | 3% | 0% | -13% | ? | nt | 0%
Cn1c(-c2ccc(Br)o2)nc2cc(Br)ccc21 | ? | -13% | -8% | -84% | 2% | ? | 4% | -2%
O=C(c1cnn(-c2cccc(F)c2)c1-n1cccc1)N1CCN(c2ccccc2F)CC1 | -4%[46.1 µM] | -6.2% | nt | nt | 0% | nt | 2% | nt
N#Cc1ccccc1S(=O)(=O)N1CCN(c2nc(-c3cccnc3)nc3ccccc23)CC1 | -19% | nt | ? | nt | -17% | ? | nt | 22%
COc1ccc(Br)cc1CNc1ccc(S(N)(=O)=O)cc1 | 0% | -7.6% | -2% | -14% | ? | ? | -18% | 2%
CCc1ccc(S(=O)(=O)NCC(O)COc2ccc(OC)cc2)cc1 (stereo not given) | ? | nt | 2% | -1% | 3% | ? | nt | 0%
